# Screening results deposited in PubChem BioAssay by National Center for Advancing Translational Sciences (NCATS).
# gsp antagonist = qHTS for Antagonists of gsp, the Etiologic Mutation Responsible for Fibrous Dysplasia/McCune-Albright Syndrome: qHTS; gsp-mutant cells, cAMP HTRF, 30 min; control for the full effect not named in the record; Potency, µM (titrated, usually from 76.9 µM), inactives show at the highest dose activity change, negative = inhibition, actives largely listed as inhibitors; actives 0.4% (n = 340,000); active = falling curve of any shape with a large fitted effect; inconclusive = falling curve, mostly with a smaller effect; inactive = flat or rising curve; cell line not stated here;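 note: intracellular cAMP measured with PDE inhibitor Ro 20-1724 present during compound exposure; potency is the fitted concentration of half-maximal effect; % is set by controls: 0 for no effect and ±100 for the full control effect; nearly all actives have a fitted effect of over 65% in size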
#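 Measurement of cellular cAMP by homogeneous time-resolved fluorescence following a 30 min compound exposure at 37C. The PDE inhibitor […] was present throughout; the assay buffer was DPBS with 0.05% BSA and 0.005% Tween 20.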
# D2 potentiator = Beta-Arrestin HTS for Positive Allosteric Modulators of the Human D2 Dopamine Receptor: Potentiators | D(2) dopamine receptor (Homo sapiens), P14416 | DiscoveRx D2 beta-arrestin cells, luminescence, 90 min; 100% = 57 uM dopamine signal | potentiation, % (concentration not given with the values) | actives 0.23% (n = 360,000); active = potentiation of 50% or more; inconclusive = 30% to 50%; inactive = 30% or less;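 note: compound concentration not given in the record; tested on top of an EC20 dose of dopamine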
#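 D2 cells co-treated with compound plus 50 nM dopamine (EC20) for 90 min at 37 deg C to detect potentiation. Beta-arrestin recruitment was read as enzyme-fragment luminescence after 1 h at ambient temperature. Full response was set by 57 uM dopamine.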
# CtBP-E1A inh = qHTS Assay for Inhibitors of the CtBP/E1A Interaction. AlphaScreen GST-E1A/His-CtBP binding, 1536-well; hits give low values; control for the full effect not named in the record. actives 0.49% (n = 340,000). activity change, % (no concentration beside the values). AID 651724, 2012. CtBP / adenovirus E1A interaction (AlphaScreen); in the data active means activity change below about -65%; inconclusive means about -30% to -65%; inactive means above about -30%; note: % is set by controls: 0 for no effect and ±100 for the full control effect; compound concentration not given in the record
#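 Protein mix (5X: 125 nM each GST-E1A, His-CtBP) was incubated with pinned compound 2 h at 37 deg C in dark, in 50 mM Tris pH 8.0 buffer with 300 mM NaCl. Glutathione donor and nickel acceptor beads followed; AlphaScreen signal read after 1 h.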
# gsp ag = qHTS for Agonist of gsp, the Etiologic Mutation Responsible for Fibrous Dysplasia/McCune-Albright Syndrome: qHTS | gsp mutant cells, cAMP HTRF, 30 min; control for the full effect not named in the record | Potency, µM (top dose mostly 76.9 µM), inactives show top-dose activation (cAMP increase), actives largely listed as activators | actives 0.13% (n = 340,000) | AID 624287, 2012; active = well fitted activation curve with a large enough effect; inconclusive = small, poorly fitted or top-dose-only effect, or another doubt; inactive = no such curve, though single readings can be large or run the other way; cell line not stated here;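 note: phosphodiesterase inhibitor Ro 20-1724 added with compounds to block cAMP breakdown; potency is the fitted concentration of half-maximal effect; nearly all actives have a fitted effect of over 60% in size; about a fifth of the inactives were tested at one dose only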
#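 Cells in DMEM/10% FBS with G418 were pretreated with compounds in DMSO plus […] (300 uM stock) for 30 min at 37C. cAMP was measured by HTRF (cAMP-d2 plus anti-cAMP antibody-K) after 30 min at room temperature.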
# D2 agonist = Beta-Arrestin HTS for Positive Allosteric Modulators of the Human D2 Dopamine Receptor: Agonists. DiscoveRx PathHunter D2 beta-arrestin, luminescence, 90 min; 100% = 57 uM dopamine signal. activation, % (test concentration not listed). actives 0.084% (n = 360,000); in the data active = activation above about 40%; inconclusive = about 15% to 40%; inactive = below about 15%; note: compound concentration not given in the record; the text of the record calls up to 30% inactive
#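 DiscoveRx PathHunter D2 beta-arrestin cells (2,100/well) attached overnight, then compound-stimulated 90 min at 37 C in HBSS/10 mM HEPES/0.1% Tween-20 buffer; beta-galactosidase complementation read by luminescence after 1 h at ambient temperature. Dopamine 57 uM final (EC100) as control.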
# Six1-Eya2 inh = qHTS Assay for Inhibitors of the Six1/Eya2 Interaction; AlphaScreen GST-Six1/His-Eya2 binding, biochemical; hits give low values; control for the full effect not named in the record; actives 0.56% (n = 360,000); AID 651725, 2012; Homeobox protein SIX1 (Homo sapiens) + Protein phosphatase EYA2 (Homo sapiens), …; activity change, % (no concentration beside the values); in the data active = activity change below about -65%; inconclusive = about -30% to -65%; inactive = above about -30%; note: % is set by controls: 0 for no effect and ±100 for the full control effect; compound concentration not given in the record
# Target sequence (O00167 whole entry, looked up): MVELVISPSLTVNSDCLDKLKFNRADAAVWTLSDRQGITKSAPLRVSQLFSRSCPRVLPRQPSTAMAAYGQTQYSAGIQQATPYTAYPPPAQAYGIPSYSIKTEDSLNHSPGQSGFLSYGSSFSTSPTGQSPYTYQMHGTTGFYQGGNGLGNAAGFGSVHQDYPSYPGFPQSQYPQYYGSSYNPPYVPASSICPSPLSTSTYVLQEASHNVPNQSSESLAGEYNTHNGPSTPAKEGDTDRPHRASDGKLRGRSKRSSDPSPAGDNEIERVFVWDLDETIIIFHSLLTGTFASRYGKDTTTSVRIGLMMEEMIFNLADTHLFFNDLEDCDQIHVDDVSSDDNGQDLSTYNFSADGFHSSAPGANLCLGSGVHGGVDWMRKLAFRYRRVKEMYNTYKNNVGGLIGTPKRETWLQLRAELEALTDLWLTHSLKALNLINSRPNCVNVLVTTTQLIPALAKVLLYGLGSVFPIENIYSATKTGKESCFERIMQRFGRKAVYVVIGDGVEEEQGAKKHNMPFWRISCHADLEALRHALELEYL
# Target sequence (Q15475 whole entry, looked up): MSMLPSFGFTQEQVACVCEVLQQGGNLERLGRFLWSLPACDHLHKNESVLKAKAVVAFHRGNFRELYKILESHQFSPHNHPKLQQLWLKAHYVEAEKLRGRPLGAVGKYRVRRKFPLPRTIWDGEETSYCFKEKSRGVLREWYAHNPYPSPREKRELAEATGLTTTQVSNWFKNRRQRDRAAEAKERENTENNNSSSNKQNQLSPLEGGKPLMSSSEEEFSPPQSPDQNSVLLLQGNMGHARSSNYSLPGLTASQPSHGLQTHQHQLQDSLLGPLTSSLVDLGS
#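 Six1/Eya2 binding was read as AlphaScreen signal after compounds were pinned into GST-Six1 plus His-tagged Eya2 (5X stock 250/500 nM) in pH 8.0 Tris/NaCl/TCEP buffer, beads added, then incubated 1 h, 37 C, dark.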
# Active calls of the source: *; ? = inconclusive; . = not tested or not shown; [ ] = another dose, or the depositor's remark.
# Order of results – gsp antagonist	D2 potentiator	CtBP-E1A inh	gsp ag	D2 agonist	Six1-Eya2 inh
COC(=O)c1ccc(CNC(=O)c2sccc2-c2ccccc2)cc1
→ -14.2%	-17.0	-4.6	11.7%	-0.2	29.2
CCOc1ccc(N(CC(=O)NCc2ccccc2)C(=O)CCC(=O)Nc2nccs2)cc1
→ -7.4%	-14.9	-3.3	9.1%[15.4 µM]	-10.6	1.6
COC(=O)c1sccc1NC(=O)c1cc(-c2cc(C)ccc2C)nc2ccccc12
→ 3.9%	-13.0	5.1	-11.7%	-1.9	7.1
COc1ccc(CNC(=O)c2cc3c(=O)n4ccccc4nc3n(CC3CCCO3)c2=N)cc1 (stereo not drawn)
→ 0.1%	-14.5	0.5	-2.7%	-2.4	-2.8
c1ccc2c(-c3nc4ncccc4o3)cccc2c1
→ -6.7%	-11.8	-10.6	0.0%	-2.6	6.8
COc1cccc(/C=N/NC(=S)NCCc2ccccc2)c1
→ 11.5%	-6.0	-18.4	0.7%[15.4 µM]	-3.4	-4.8
COC(=O)N(C)C[C@@H]1OCc2ccccc2-c2c(n(C)c3ccccc23)C(=O)N([C@H](C)CO)C[C@@H]1C
→ .	-5.3	-3.9	-63.4%[inhibitor]	-4.7	50.7
COc1ccc(NC(=O)c2sc3cc(C(F)(F)F)cnc3c2-c2cccs2)cc1
→ ?	6.4	-0.1	?	-1.0	15.1
Cc1ccccc1C(=O)N1CC(=O)Nc2ccc(F)cc2C1c1ccc(F)cc1 (stereo not drawn)
→ -6.7%	-4.5	-10.4	0.2%[15.4 µM]	-2.9	-17.9
CN(C)c1ccc(CNC(=O)c2ccc(CNc3c(N4CCCCC4)c(=O)c3=O)cc2)cc1
→ -17.0%	-7.6	-24.7	35.0%	-1.8	-1.8
O=S(=O)(c1ccc(-c2ccccn2)s1)N1CCC2(CC1)OCCO2
→ 6.7%	-4.0	2.7	-20.4%[15.4 µM]	-0.4	7.1
CCOC(=O)C1=C[C@@H](CC)N(S(=O)(=O)c2ccc(C)cc2)[C@H]1c1cccs1
→ .	-3.2	25.1	.	-3.7	16.2
COc1cc(OC)c(C(=O)OCC(=O)Nc2cccc(S(=O)(=O)NC3=NCCCCC3)c2)cc1OC
→ 3.4%	-17.0	-1.7	6.8%	-3.2	-20.3
CC(c1cccnc1)N(C(=O)Nc1ccccc1)C1CCCCC1 (stereo not drawn)
→ 10.3%	-5.8	4.1	0.0%	0.0	1.6
COc1ccccc1-n1cc(C(=O)c2cc(Cl)ccc2O)cc(C#N)c1=O
→ -25.0%	14.7	-3.8	0.7%[15.4 µM]	2.0	-7.5
O=C(O)CSc1ccccc1C(=O)O
→ 11.8%	-9.5	6.8	-20.8%	-3.1	4.6
CN1C(=O)/C(=C\C=C2/CCCN2C)N(C)C1=S
→ ?	-10.3	-9.8	23.1%	-3.8	4.4
CN1CCN(C(=O)NC2CCCCC2)CC1
→ 15.2%	-15.2	10.4	3.3%	-0.1	5.6
CCOc1ccc2c(c1)-c1c(ssc1=S)C(C)(C)N2
→ -20.4%	-20.3	?	-0.2%	-2.8	?
Oc1ccccc1N1CCN(c2ncnc3scc(-c4ccccc4)c23)CC1
→ -29.0%	9.8	-4.8	2.6%	5.0	-7.2
COc1cccc(Nc2nc3ccccc3n3cnnc23)c1
→ -3.8%	5.1	-7.9	10.3%	-5.1	-19.3
Cc1cc(=O)oc2cc(NS(=O)(=O)c3ccc(F)cc3)ccc12
→ -7.9%	3.7	7.6	7.0%[15.4 µM]	4.0	4.1
O=C(CCCN1C(=O)/C(=C/c2ccccc2Cl)SC1=S)NNC(=O)c1ccccc1Cl
→ -15.0%	-0.7	35.6	-27.0%	3.1	0.1
O=C(NC1CCC(=O)N(CCOc2ccccc2)CC1)OCc1ccccc1 (stereo not drawn)
→ 4.8%	-18.4	1.5	.	1.2	4.8
CC(NC(=O)c1ccc(C(C)(C)C)cc1)C(=O)O (stereo not drawn)
→ 2.6%	1.2	17.0	24.9%	-0.1	6.7
C=CCN(c1ccccc1OC)S(=O)(=O)c1cccc(C(=O)NC2=NCCS2)c1
→ -7.5%	-16.9	-4.4	12.6%[15.4 µM]	4.4	-15.5
COc1ccc(-c2nc(=S)c3c(n2Cc2cccnc2)CC(C)(C)OC3)cc1
→ -4.0%	-9.0	4.0	-4.3%[15.4 µM]	-5.8	-2.1
Cc1ccnc(NC(=S)N2CCN(c3cccc(C(F)(F)F)c3)CC2)c1
→ -13.5%	-17.1	-11.5	3.5%[15.4 µM]	-9.4	10.6
O=C(CSc1nc(C2CCCCC2)nc2ccccc12)NCc1ccco1
→ -13.3%	-2.5	1.4	8.5%[15.4 µM]	-3.0	0.4
CN(c1nc2ccccc2n2c(C3CC3)nnc12)S(=O)(=O)c1ccccc1
→ 2.8%	-10.5	.	-4.8%	-4.0	1.6
COc1cc(-c2nc(-c3ccc4c(c3)-c3ccccc3S4(=O)=O)c(-c3ccccc3)[nH]2)cc(OC)c1O
→ -8.8%	-29.2	-12.9	-54.9%[inhibitor]	3.8	-12.9
CC(=O)Nc1ccc(/C(C)=N/NS(=O)(=O)c2ccccc2)cc1
→ -8.9%	-4.6	9.1	-4.7%	-1.1	-7.3
CCOc1ccccc1N1CC(C(=O)Nc2nccs2)CC1=O (stereo not drawn)
→ 11.8%	-22.1	0.6	24.8%	-4.9	5.0
N#Cc1nc(-c2ccccc2F)oc1N1CCCCC1
→ 3.7%	-5.6	-15.8	-1.2%	-2.4	3.0
CS(=O)(=O)N1CCN(c2ccc(NC(=O)c3ccccc3)cc2)CC1
→ 1.0%	-0.4	5.9	-12.0%[15.4 µM]	-5.6	1.3
CCOc1ccc(N2C(=O)c3ccccc3C2O)cc1 (stereo not drawn)
→ -4.4%	-0.8	1.8	-42.4%[inhibitor]	1.9	0.6
COc1cc(OC)cc(C(=O)NNC(=O)CCc2ccccc2)c1
→ -17.9%	-6.9	5.9	-16.5%	5.8	7.7
COCCn1c(SCC(=O)Nc2nc(C)c(Cl)cc2Cl)nc2ccccc21
→ 1.7%	-11.2	1.4	11.8%	-3.3	2.3
CC(C)NC(=O)C1CCCN(S(=O)(=O)c2cccc3nonc23)C1 (stereo not drawn)
→ 2.1%	-4.1	0.7	2.1%	-2.6	-3.5
Cc1ccc2nc(Cl)c(C3CC(c4ccco4)=NN3C(=O)CCCC(=O)O)cc2c1 (stereo not drawn)
→ -8.8%	-5.5	-4.5	9.7%[15.4 µM]	2.0	-24.7

# Limited to Six1-Eya2 inh, gsp antagonist and gsp ag (two entries from above):
Structure | Six1-Eya2 inh | gsp antagonist | gsp ag
COc1cccc(Nc2nc3ccccc3n3cnnc23)c1 | -19.3 | -3.8% | 10.3%
Cc1cc(=O)oc2cc(NS(=O)(=O)c3ccc(F)cc3)ccc12 | 4.1 | -7.9% | 7.0%[15.4 µM]

# Next records.
# Order of results – gsp antagonist	D2 potentiator	CtBP-E1A inh	gsp ag	D2 agonist	Six1-Eya2 inh
COc1cccc(Cn2cnc3c(NS(=O)(=O)c4ccc(Cl)cc4Cl)c(C)c(C)cc32)c1
→ -21.3%	?	-9.2	-2.6%	-4.3	-9.9
OCCC1CN(Cc2ccccn2)CCN1C1CCCC1 (stereo not drawn)
→ -8.0%	-9.7	5.0	11.9%[15.4 µM]	-2.6	-2.2
O=C(Cc1cccc2ccccc12)Nc1ccccc1Br
→ 5.4%	-14.8	.	?	0.0	4.4
Cc1cc(NC(=O)Cc2ccc(Br)cc2)no1
→ -6.0%	-4.0	9.3	4.6%[15.4 µM]	3.2	10.6
Cc1ccc(C)c2[nH]c(=O)c(CCNC(=O)CC(C)(C)C)cc12
→ 3.9%	-1.7	1.5	-0.3%	4.1	-0.7
COc1ccc(N=C2C(=O)N3CCCc4cccc2c43)cc1
→ 4.3%	-16.9	-1.1	-14.3%	-5.4	-4.0
COc1ccc(CCNC(=O)CSc2nc3[nH]ncc3c(=O)n2-c2ccc(C)c(Cl)c2)cc1OC
→ -18.7%	-6.3	2.0	-49.3%[inhibitor]	-0.3	-13.0
Cc1ncc([N+](=O)[O-])n1CCOC(=O)Nc1ccc(Cl)c(Cl)c1
→ -20.5%	-24.0	-3.2	16.5%	-2.4	-3.1
COc1ccc(NC(=O)c2cccc(S(=O)(=O)NCc3ccco3)c2)c(OC)c1
→ 9.9%	16.4	-4.8	-5.7%[15.4 µM]	-1.6	-4.8
COc1ccc(-c2csc3ncnc(N4CCN(Cc5ccccc5)CC4)c23)cc1
→ -18.3%	-6.9	5.8	2.4%[15.4 µM]	0.0	-5.2
COc1cc(CC(CC(=O)O)CC(C)OCc2ccccc2)cc(OC)c1 (stereo not drawn)
→ 6.0%	-13.3	11.3	10.0%	-2.1	13.0
CN(C(=O)CC1C(=O)NCCN1Cc1ccc(F)cc1Cl)C1CCCCC1 (stereo not drawn)
→ 9.7%	-4.3	11.7	17.0%	-2.7	9.6
COc1ccc(C)cc1NC1=C(Cl)C(=O)N(C2CCCCC2)C1=O
→ -12.9%	-5.8	-13.2	-0.3%	-2.0	-19.1
Cc1n[nH]c(C)c1C(=O)CC1(O)C(=O)N(CCc2ccccc2)c2ccc(Cl)cc21 (stereo not drawn)
→ -12.5%	-9.3	-0.5	20.5%	-3.5	-6.5
Cc1ccc(C2CC(C(F)(F)F)n3ncc(C(N)=O)c3N2)cc1 (stereo not drawn)
→ 4.5%	-22.2	10.4	-35.9%[inhibitor]	-2.0	7.2
CN(C(=O)CSc1nnc(C2CC2)n1C)C1CCCc2ccccc21 (stereo not drawn)
→ 4.4%	-19.2	-1.2	-1.5%	-3.1	5.3
CCn1cc(/C=N\NC(=O)Cc2ccc([N+](=O)[O-])cc2)c(C)n1
→ 7.1%	9.7	-2.3	-8.1%[15.4 µM]	2.9	-4.4
Oc1ccccc1C(=S)N1CCN(c2cccc(Cl)c2)CC1
→ -1.2%	-8.7	-10.0	-85.5%[inhibitor]	-0.7	-12.2
O=C(COc1nsnc1N1CCOCC1)Nc1ccccc1Cl
→ -18.8%	-3.3	-0.6	-6.6%	0.1	-10.2
O=C(COc1ccccc1F)NC12CC3CC(CC(C3)C1)C2
→ -8.5%	-12.8	-0.9	-0.5%	-3.0	10.7
Cc1cc(NC(=O)CCc2ccc(C)o2)no1
→ -4.9%	-13.3	-18.0	29.1%	-2.5	-76.9*
O=C(NC1CCCCCC1)C(=S)NCCc1ccccc1
→ 12.4%	-6.1	7.7	7.9%	-0.3	6.5
